# High-throughput results: PubChem, National Center for Advancing Translational Sciences (NCATS)
# StopGo RLuc: FMDV 2A StopGo reporter, Renilla signal; HEK cells with a luciferase reporter of 2A StopGo recoding; Potency, µM (titrated, usually from 57.5 µM), for the others: top-dose signal change, negative = less light; 0.32% of 120,000 active; active means well fitted falling curve with a large enough effect; inconclusive means small, poorly fitted or top-dose-only effect; inactive means no such curve, though single readings can be large or run the other way; also: nearly all actives have a fitted effect of over 55% in size; overnight with compound
# 2A firefly: FMDV 2A StopGo reporter, firefly signal; HEK cells with a luciferase reporter of 2A StopGo recoding; Potency, µM (doses to about 57.5 µM), without a hit: top-dose signal change, negative = less light; 0.23% of 120,000 active; active = well fitted falling curve with a large enough effect; inconclusive = small, poorly fitted or top-dose-only effect; inactive = no such curve, though single readings can be large or run the other way; also: nearly all actives have a fitted effect of over 60% in size; overnight with compound
# Numbers without * were called inactive; ? = inconclusive; & = joins results of further samples; [ ] = remark or other dose. % is scaled to controls: 0 for no effect and ±100 for the full control effect; potency is read from the fitted curve at half-maximal effect.
canonical_smiles	2A firefly	StopGo RLuc
Cn1c(=O)n(Cc2ccccc2)c(=O)c2sc3c(c21)COC(C)(C)C3	4%	-1%
CCOCCCn1c(SCC(=O)Nc2ccc(CC)cc2)nc2ccccc2c1=O	1%	10%
Cc1oc(-c2ccccc2)nc1CNC(=O)Nc1ccccc1	7%&-8%	110%&0%[activator]
O=C(Cn1ccc(=O)[nH]c1=O)Nc1cnc2ccccc2c1	20%	-9%
COc1ccc(C(CNC(=O)c2cccc3c(=O)c(C)c(-c4ccccc4)oc23)N(C)C)cc1 (stereo not given)	-14%	-16%
COc1ccc2c(c1)cc(C(=O)NCCOc1ccccc1)n2C	220%[activator]	20%
CC(=O)Oc1cccc(C(=O)Nc2ccc(-c3nc4cc(C)ccc4o3)cc2)c1	24%	0%
Cc1cc(C)c(S(=O)(=O)N2CCC(n3c(CC(C)C)nc4cccnc43)CC2)c(C)c1	-2%	7%
O=c1[nH]c2ccccc2cc1CN(CC1CCCO1)S(=O)(=O)c1ccccc1 (stereo not given)	0%	25%
Cc1ccc(C(=O)NCc2nnnn2-c2ccc(C)c(C)c2)cc1	8%	15%
COc1ccc(NS(=O)(=O)c2ccc3c(c2)NC(=O)CS3)cc1	4%	154%[activator]
FC(F)(F)c1cccc(Cn2ccc3ccccc32)c1	-6%	-2%
Cc1ccc(C(=O)c2c(N)c(-c3nc4ccccc4[nH]3)c3ccccn23)cc1	0%	-7%
Cc1ccc(OCC(=O)Nc2cccc(C(=O)OCc3cc(=O)n4nc(C)sc4n3)c2)cc1	?	-8%
Cc1cc2c(cc3c(SCc4ccc(Cl)cc4)nncn32)o1	-2%	4%
CCOc1ccc2cc(-c3csc(Nc4ccc(C)cc4)n3)c(=O)oc2c1	-5%	-13%
Cc1ccc(-n2ncc3c(Nc4cccc(C)c4C)ncnc32)cc1	42%[activator]	2%
COc1ccc(OC)c(S(=O)(=O)NCCc2csc3nc(-c4ccccc4)nn23)c1	-22%	144%[activator]
CCOc1ccccc1C(=O)Nc1ccccc1C(C)CC (stereo not given)	-7%	1%
O=C(CSc1ncnc2ccccc12)N(C1CCCC1)C1CCS(=O)(=O)C1 (stereo not given)	-5%	-16%
Cc1noc(NC(=O)c2ccc(Br)o2)n1	5%	10%
COc1ccc(NC(=O)CCc2nnc3ccc(NCc4ccccc4Cl)nn23)cc1	15%	4%
CCC1CCCCN1C(=O)Cn1c(-c2ccccc2)nc(C)cc1=O (stereo not given)	-3%	26%
CCCCCCn1nc(C(=O)Nc2nc(-c3ccc(NC(C)=O)cc3)cs2)c2ccccc2c1=O	41%[activator]	55%[activator]
COc1ccc(CCNC(=O)c2ccc3c(c2)CCC(=O)N3)cc1OC	-6%	11%
CC(=O)NC(Cc1c[nH]c2ccccc12)C(=O)NC1CCCCC1 (stereo not given)	-1%	0%
O=C(/C=C/c1ccc(-c2ccccc2Cl)o1)c1ccccc1Br	3%	5%
CCOc1ccc(-c2cc(C)n3nc(C(=O)Nc4ccc(C)c(C)c4)cc3n2)cc1	-17%	-7%
Cc1cccc(-c2nc(S(=O)(=O)c3ccc(F)cc3)c(N3CCN(c4ccccc4)CC3)o2)c1	-2%	-12%
Cc1cc(F)ccc1S(=O)(=O)Nc1cccc(N2CCCS2(=O)=O)c1	?	42%[activator]

# Following part:
canonical_smiles	2A firefly	StopGo RLuc
O=C(Cn1nc(N2CCN(c3ccccc3)CC2)ccc1=O)NC1CC1	6%	-2%
Cc1cc(C(=O)CN2CCN(CC(=O)Nc3cccc(F)c3)CC2)c(C)n1CCc1cccs1	-13%	-18%
COc1cc(CC(=O)OCC(=O)Nc2ccccc2OC(F)F)cc(OC)c1OC	-3%	-13%
Cc1oc(-c2ccccc2Cl)nc1CSc1nc2ncccc2[nH]1	2%&-1%	9%&18%
Cc1ccc(Cl)cc1-n1ncc2c(N3CCC(C)CC3)ncnc21	-29%	?
O=C(Nc1cc(F)ccc1F)C1CCN(c2nc3ccccc3n3cccc23)CC1	-21%	1%
CCc1nn(CC(=O)Nc2ccc(NC(C)=O)cc2)c(=O)c2cc3sccc3n12	-25%	-9%
Nc1cc(Sc2ccccn2)cc([N+](=O)[O-])c1	40%[activator]	24%
O/N=C/c1ccc(OCc2ccccc2)c(OCc2ccccc2)c1	2%	63%[activator]
Cc1cccc(NC(=O)NC2CCSc3ccccc32)c1 (stereo not given)	37%[activator]	24%
O=C(Nc1cc(C(F)(F)F)ccc1Cl)C1=C(c2ccccc2)S(=O)(=O)CCO1	4%	-31%
CCCN(Cc1cccs1)C(=O)Nc1ccc(F)c(Cl)c1	0%	-6%
COCCCNc1nc(NCc2cccc(Cl)c2)c2cnn(C)c2n1	?	31%[activator]
Cc1cc(=O)oc2cc(OCC(=O)N(C)C3(C#N)CCCCC3)c(Cl)cc12	6%	3%
CC(=O)NNC(=S)NCc1ccccc1	8%	3%
Cn1c(=O)c2c(ncn2CC(=O)OC(C)(C)C)n(C)c1=O	-5%	-4%
O=C(/C=C/c1c(F)cccc1F)c1cc2ccccc2o1	106%[activator]	118%[activator]
COc1ccc(C(=O)Oc2ccc3c(c2)O/C(=C\c2ccc(C(C)(C)C)cc2)C3=O)cc1OC	21%	2%
COc1ccc(S(=O)(=O)N2CCN(c3cc(N4CCOCC4)nc(C)n3)CC2)c(C)c1C	-8%	68%[activator]
O=C(CSc1ncc2c(n1)-c1ccc(Cl)cc1N(Cc1ccccc1)S2(=O)=O)Nc1ccccc1C(F)(F)F	1%	6%
COCCCNC(=O)c1ccc(Cn2c(=O)c3cccn3c3cccnc32)cc1	36%[activator]	0%
CC1(C)CC(=O)C2=C(C1)OC(N)=C(C#N)C2c1cccc(Br)c1 (stereo not given)	6%	17%
COc1ccc(NC(=O)C2CCCN(Cc3nc(-c4ccc(OC)c(OC)c4)no3)C2)cc1OC (stereo not given)	45%[activator]	34%[activator]
COc1ccccc1Nc1nc2ccc(Cl)cc2nc1-n1nc(C)cc1C	66%[activator]	22%
COc1ccc(N2C(=O)C(C)(C)CS2(=O)=O)cc1S(=O)(=O)NCc1ccco1	-1%	-33%
O=c1[nH]c(=O)n(Cc2ccco2)c2c1C(C(F)(F)F)(C(F)(F)F)N=C(c1ccccc1)N2	10%	-5%
CCCOc1ccc(C(=O)Nc2cccc3ccc(C)nc23)cc1	6%	9%
O=C(CSc1cn(CC(=O)N2CCCCCC2)c2ccccc12)Nc1ccccc1F	?	?
COc1cccc(NC(CNS(=O)(=O)c2ccc(Cl)cc2)c2ccccc2)c1 (stereo not given)	?	25%
Cc1ccsc1CN(C(=O)COc1ccc(Cl)cc1)C1CCS(=O)(=O)C1 (stereo not given)	13%	-1%

# Record cards, as listed above. Screens in order: 2A firefly | StopGo RLuc
# CCOc1ccc2cc(-c3csc(Nc4ccc(C)cc4)n3)c(=O)oc2c1 is entered as -5% | -13%
# COc1ccccc1Nc1nc2ccc(Cl)cc2nc1-n1nc(C)cc1C is entered as 66%[activator] | 22%
# CCCCCCn1nc(C(=O)Nc2nc(-c3ccc(NC(C)=O)cc3)cs2)c2ccccc2c1=O is entered as 41%[activator] | 55%[activator]

# Going on with the list:
canonical_smiles	2A firefly	StopGo RLuc
CN(C)S(=O)(=O)c1cccc(NC(=O)COc2ccc(Cl)cc2)c1	78%[activator]	18%
O=S1(=O)c2ccc(Br)cc2OC[C@H](Cc2ccccc2)N1Cc1cn(Cc2ccc(F)cc2)nn1	53%[activator]	0%
CCC(=O)N1CCc2cc(S(=O)(=O)NC(C(=O)NCCc3ccc(OC)c(OC)c3)C(C)C)ccc21 (stereo not given)	-3%	2%
CC1CCc2c(sc3nnn(Cc4ccc(F)cc4)c(=O)c23)C1 (stereo not given)	-19%	19%
Nc1nc(Cl)cc(N2CCC(c3nc(C4CC4)n[nH]3)CC2)n1	21%	10%
O=C(CCCc1c[nH]c2ccccc12)NCc1ccc(F)cc1	11%	2%
O=C(CSc1nc2cc3ccccc3cc2[nH]1)Nc1ccc(F)cc1	72%[activator]	7%
CCn1c(SCC(=O)c2ccc([N+](=O)[O-])cc2)nnc1-c1ccc(Cl)cc1	6%	2%
C=CCNC(=O)NC(=O)COC(=O)c1cn(C)c2ccccc12	14%	15%
CCCCC1CCC(C(=O)NNC(=O)c2ccc(Cl)cc2)CC1 (stereo not given)	12%	9%
CCC1CN(CC(=O)NCc2cccc(Br)c2)c2ccccc2S1 (stereo not given)	6%	48%[activator]
COc1ccc(C(=O)Nc2ccnn2Cc2ccco2)cc1S(=O)(=O)N1CCCC1	4%	2%
COc1ccc(C(N)=O)c(OCc2coc(-c3ccccc3)n2)c1	?	?
Brc1ccc(CSc2nc3ccccc3s2)cc1	93%[activator]	5%
Cc1ccccc1-c1nn2c(=O)cc(N3CCN(C(=O)Nc4ccccc4Cl)CC3)nc2s1	9%	-14%
COC(=O)c1cc2sccc2n1CC(=O)Nc1cc(Cl)ccc1OC	?	?
COC(=O)c1ccc(CNC(=O)COC(=O)c2cc3ccccc3oc2=O)cc1	12%	20%
COc1ccccc1CNC(=O)c1cc(C)nc2ccccc12	-1%	29%
CN(C)C(=O)CN1CCN(c2ccnc3c(F)ccc(F)c23)CC1	9%	-12%
CN(C)C(=O)c1ccc(F)c(F)c1	-6%	-3%
O[C@@H]1CO[C@H]2[C@@H]1OC[C@@H]2O	-16%	-11%
Cc1cccc(C(=O)NCC(=O)N2CCCC2c2ccccc2)c1 (stereo not given)	6%	4%
CCCCn1c(SCc2ccccc2C#N)nc2c(sc3ccccc32)c1=O	-20%	8%
Cc1cc(=O)oc2cc(NC(=O)Cc3c(Cl)cccc3Cl)ccc12	0%	2%
Cc1oc(-c2ccc(Cl)cc2)nc1Cn1c(=O)cc(C)c2c(C)nn(-c3cccc(F)c3)c21	-20%	-6%
Cc1cc(C)n(C(=O)c2ccc(C)c(S(=O)(=O)N3CCCCC3)c2)n1	-1%	-2%
CCc1cc(C(=O)OC)c(NC(=O)c2c(CC)noc2C)s1	-12%	-15%
CC(CNC(=O)CCc1cn(Cc2ccccc2Cl)c2ccccc12)c1ccccc1 (stereo not given)	-22%	9%
COc1ccc2[nH]cc(CCNC(=O)CCNc3nc(Cl)nc4nc[nH]c34)c2c1	3%	-8%
COc1ccccc1C1SCCN1S(=O)(=O)c1cccc(C)c1 (stereo not given)	6%	20%

# Some of the entries so far, as labelled records:
Compound: CCC1CN(CC(=O)NCc2cccc(Br)c2)c2ccccc2S1 (stereo not given)
  2A firefly: 6%; StopGo RLuc: 48%[activator]
Compound: COc1ccc(C(=O)Nc2ccnn2Cc2ccco2)cc1S(=O)(=O)N1CCCC1
  2A firefly: 4%; StopGo RLuc: 2%

# Given with each value named: entries from further up.
> CCCCn1c(SCc2ccccc2C#N)nc2c(sc3ccccc32)c1=O
  2A firefly = -20%; StopGo RLuc = 8%

> Cc1cc(=O)oc2cc(NC(=O)Cc3c(Cl)cccc3Cl)ccc12
  2A firefly = 0%; StopGo RLuc = 2%

> Cc1oc(-c2ccc(Cl)cc2)nc1Cn1c(=O)cc(C)c2c(C)nn(-c3cccc(F)c3)c21
  2A firefly = -20%; StopGo RLuc = -6%

> Cc1cc(C)n(C(=O)c2ccc(C)c(S(=O)(=O)N3CCCCC3)c2)n1
  2A firefly = -1%; StopGo RLuc = -2%

# Next part
canonical_smiles	2A firefly	StopGo RLuc
Cc1ccc(-c2c(C(=O)O)sc3c2cnc2ccc(C)cc23)cc1	7%	-3%
CC(C)c1ccc(C2C(c3ccccc3)=C(O)C(=O)N2Cc2ccccn2)cc1 (stereo not given)	8%	19%
O=C(CSc1nnc(-c2ccccc2F)n1C1CCCCC1)N1CCCC1	10%	11%
CCCCCC/C(C)=N/NC(N)=S	18%	-3%
Cc1cc(C)n(-c2ncnc3sc(C)c(-c4ccc(Cl)cc4)c23)n1	2%	6%
CC1Cc2ccccc2N1S(=O)(=O)c1nnc(NC(=O)c2ccccc2)s1 (stereo not given)	4%	54%[activator]
CN(C)c1ccc(/C=N/Nc2ccc(F)cc2F)cc1	0%	32%[activator]
Cc1ccc(N(Cc2cc(=O)[nH]c3ccccc23)C(=O)c2ccncc2)cc1	-7%	-1%
CCOc1cc(C2c3c(oc4ccccc4c3=O)C(=O)N2Cc2ccc3c(c2)OCO3)ccc1O (stereo not given)	-13%	?
CC(Oc1ccc(F)cc1F)C(=O)NN (stereo not given)	2%	38%[activator]
COc1ccc(C(=O)O)cc1Nc1nc2ccc(C)cc2n2cnnc12	15%	-3%
Cc1ccc2sc(N3CCN(C(=O)C4COc5ccccc5O4)CC3)nc2c1C (stereo not given)	-1%	-1%
O=C(Nc1cc(Cl)cc(Cl)c1)c1ccc(S(=O)(=O)C2CCS(=O)(=O)C2)cc1 (stereo not given)	-2%	-12%
CCOC(=O)CCc1cc2c(C)cc(=O)oc2cc1O	0%	-4%
OC(CC#CCN1CCCC1)(c1ccccc1)c1ccc(-c2ccccc2)cc1 (stereo not given)	-6%	8%
CCc1ccc(-n2nc(C)c3c(C)cc(=O)n(CC(=O)N(CC)Cc4ccccc4)c32)cc1	-1%	-14%
